Polio RdRp inh – poliovirus RdRp elongation inhibitors, primary screen, biochemical, fluorescence polarization, total intensity. Genome polyprotein (Poliovirus type 1 (strain Mahoney)), P03300. poliovirus polymerase elongation; stronger effect = lower value. % elongation, % (compound at 16.7 µg/mL). 150,000 tested, 0.66% active. AID 588519, 2011; in the data active = % elongation below about 90%; also: some results filed as inactive read as strong as hits
Target sequence (P03300 1749-2209 limits assumed): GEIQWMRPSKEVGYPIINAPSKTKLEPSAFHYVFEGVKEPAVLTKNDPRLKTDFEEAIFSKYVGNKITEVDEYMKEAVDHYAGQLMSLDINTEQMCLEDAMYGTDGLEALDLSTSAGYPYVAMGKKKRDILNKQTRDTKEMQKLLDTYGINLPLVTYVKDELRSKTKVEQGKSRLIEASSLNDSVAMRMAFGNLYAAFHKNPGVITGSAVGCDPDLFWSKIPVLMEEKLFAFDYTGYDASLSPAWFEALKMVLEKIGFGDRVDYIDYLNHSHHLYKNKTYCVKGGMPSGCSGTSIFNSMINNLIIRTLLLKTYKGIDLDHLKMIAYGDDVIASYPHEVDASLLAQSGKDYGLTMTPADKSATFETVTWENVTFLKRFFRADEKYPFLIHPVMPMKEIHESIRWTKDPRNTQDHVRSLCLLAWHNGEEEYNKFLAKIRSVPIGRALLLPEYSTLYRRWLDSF
Polio RdRp inh intensity – recorded beside Polio RdRp inh, whose call it bears; % elongation; measured here: total intensity read-out; formula for this scale not given here;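 total fluorescence in place of polarization; lower means less elongation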
* marks the source's active call; other numbers are inactive results. Some of the compounds tested; count on the stated rates, not on these rows.

SMILES	Polio RdRp inh	Polio RdRp inh intensity
CN(C(=O)CSc1nc2ccc(NC(=O)COc3ccccc3Cl)cc2s1)c1ccccc1	110	106
O=C(Nc1ccc2oc(-c3cccnc3)nc2c1)c1ccc(-c2ccccc2OC(F)(F)F)o1	109	111
Cc1ccc(C(=O)N(Cc2ccc(N(C)C)cc2)CC2CCCO2)cc1 (stereo unspecified)	101	108
Cc1ccc(NC(=O)C2CCCN(C(=O)c3cnn(-c4ccc(F)cc4)c3-n3cccc3)C2)c(Cl)c1 (stereo unspecified)	108	114
CCn1c(=O)c2sccc2n2c(CCC(=O)Nc3ccc(OC)cc3OC)nnc12	105	111
Cc1cn2c(=O)c(S(=O)(=O)NC(C)c3ccccc3)c(C)nc2s1 (stereo unspecified)	112	115
COc1ccc(-c2noc(CSc3nnc(-c4ccccc4)n3C)n2)cc1	109	108
COc1cc(CNCc2c(C(=O)O)c(C)n(Cc3cccc(Cl)c3)c2C)cc(OC)c1OC	103	105
CCOc1ccc(OCC)c(NC(=O)c2nnn(Cc3cc(Br)ccc3OC)c2N)c1	103	104
O=C(c1ccc(F)cc1)N1CCc2c([nH]c3ccccc23)C1c1ccc(Cl)cc1 (stereo unspecified)	106	114
COc1ccc(CC(=O)NCCc2csc3nc(-c4ccccc4F)nn23)cc1	101	107
O=C(CC(c1cccs1)N1Cc2ccccc2C1=O)Nc1ccc(F)c(Cl)c1 (stereo unspecified)	105	108
CC(C)Oc1ccc(CNC(=O)C2CCN(c3nc4ccccc4nc3C(F)(F)F)CC2)cc1	103	111
CCOc1ccc(CC(=O)NCCc2csc(-c3ccc(Cl)cc3)n2)cc1	104	106
COc1ccccc1-c1cc2nc(C)c(CCC(=O)O)c(C)n2n1	101	107
Cc1ccc(-n2nc(CO)c(C(=O)NCc3ccccn3)n2)cc1	105	105
Cn1cc(-c2cc3n(n2)CCC(=O)N3CCCC(=O)NCc2ccc(F)cc2)c2ccccc21	108	110
Cc1ccc(N2CC(NC(=O)CCc3ccccc3)CC2=O)cc1 (stereo unspecified)	102	104
O=C(C1CCC1)N1CCCc2cc(S(=O)(=O)N3CCN(c4cccc(Cl)c4)CC3)ccc21	107	103
Cc1cccc(CNC(=O)c2ccc3nc(Cc4ccccc4)oc3c2)c1	111	101
Cc1ccn2c(Nc3ccc(C(C)C)cc3)c(-c3ccsc3)nc2c1	114	113
O=C(Nc1c(C(=O)N2CCN(c3ccc(F)cc3)CC2)oc2ccccc12)c1ccco1	97	105
CC1CCN(S(=O)(=O)c2ccc3c(c2)oc(=O)n3CC(=O)N2CCCCC2)CC1	98	99
COc1ccc(Cl)cc1NC(=O)c1nnn(Cc2cccc(C(F)(F)F)c2)c1N	109	100
CCc1ccc(NC(=O)c2ccc(CN3CC(=O)N4CCCCC4C3=O)cc2)cc1 (stereo unspecified)	107	107

Other compounds
SMILES	Polio RdRp inh	Polio RdRp inh intensity
Cc1cc(C)cc(OCC(=O)N(Cc2ccco2)Cc2ccccc2Cl)c1	102	102
CC(Oc1ccccc1)C(=O)Nc1cccc(-c2cn3cccnc3n2)c1 (stereo unspecified)	105	107
CCOC(=O)c1c(C)[nH]c(C)c1S(=O)(=O)N1CCC(C(=O)Nc2ccc(OC)c(OC)c2)CC1	104	109
CC1=C(C(=O)Nc2ccc(Cl)cc2)C(c2cccs2)n2nc(SCc3cccc(C)c3)nc2N1 (stereo unspecified)	114	113
Cc1ccccc1C(=O)Nc1nc(-c2ccc(Br)cc2)ns1	109	107
CCOC(=O)c1cc(OC(=O)c2ccccc2F)n(-c2ccccc2)n1	105	107
CCc1ccc(C(=O)c2cnc3ccc(C)cc3c2S(=O)(=O)c2ccc(OC)cc2)cc1	104	103
CCOCCc1nn2c(=O)cc(COC(=O)c3ccccc3NC(=O)c3ccc(C)cc3)nc2s1	107	111
Cc1nn(C)c2c1c(C(F)(F)F)cc(=O)n2CC(=O)NCCC(C)C	109	108
O=C(c1ccc(CSc2nc3ccncc3n2Cc2ccc(F)cc2)cc1)N1CCCCCC1	104	108
Cc1cccc(NC(=O)Cn2nnc(C(=O)Nc3ccc(F)c(Cl)c3)c2N)c1	98	105
CCOc1ccc(CCNC(=O)c2oc(=O)c3ccccc3c2-c2ccc(C)cc2)cc1OCC	108	107
COc1ccc(-c2nc3cc(C(C)C)ccc3o2)cc1NC(=O)c1ccccc1[N+](=O)[O-]	106	111
COc1ccc(-n2nc(C(=O)N3CCN(c4ccccc4OC)CC3)c3c4ccccc4n(C)c3c2=O)cc1Cl	109	103
CCCOc1cccc(C(=O)Nc2cccc(NC(=O)c3ccc(C(C)(C)C)cc3)c2)c1	109	114
CC(CNC(=O)Cn1ccc2cc(S(=O)(=O)N3CCCCCC3)ccc21)c1ccccc1 (stereo unspecified)	105	100
Cc1ccc(-n2ncc(C(=O)NCCN3CCc4ccccc4C3)c2C2CCN(C(=O)OC(C)(C)C)CC2)cc1C	102	107
O=C(CSc1nccn1Cc1ccc(F)cc1)Nc1nc2ccccc2s1	106	114
CCN(CC)C(=O)C1CCCN(c2ncnc3onc(C)c23)C1 (stereo unspecified)	110	114
CCc1ccc(NC(=O)CN(c2cc(C)cc(C)c2)S(=O)(=O)c2c(C)[nH]c(=O)[nH]c2=O)cc1	104	107
Cc1cccc(N(C)c2ccc3cc(S(=O)(=O)N4CCCC4)ccc3n2)c1	104	108
Cc1ccc(NC(=O)CN2Cc3ccccc3C2=O)c(C)c1	108	104
COC(=O)c1c(SC)nc2ccccc2c1OCc1ccc(C)cc1	106	115
Cc1cccc(NC(=O)CSc2nc3ccc(NC(=O)COc4ccccc4F)cc3s2)c1	111	102
CCN1CCN(c2ncc3c(n2)CCN(Cc2ccc(C)s2)C3)CC1	105	108

The list continues:
SMILES	Polio RdRp inh	Polio RdRp inh intensity
Cc1cccn2c(=O)cc(CSc3nnc(NC(=O)COc4ccc(F)cc4)s3)nc12	111	112
Cc1ccccc1-n1c(/C=C/c2ccccc2F)nc2ccccc2c1=O	107	111
COc1ccccc1N1CCN(c2ccc(=O)n(CC(=O)NCc3ccc(OC(C)C)cc3)n2)CC1	107	113
CSc1ccc(/C=C/c2nc3ccccc3n2S(=O)(=O)c2ccc(Br)cc2)cc1	106	107
Cc1c(C(=O)OC2CCCCC2)[nH]c2c1C(=O)CC(c1ccc(C(C)(C)C)cc1)C2 (stereo unspecified)	109	112
CCCN1CCN(c2cc3c(cc2F)c(=O)c(S(=O)(=O)c2ccc(Cl)cc2)cn3C)CC1	107	106
CCc1ccc(NC(=O)CC2C(=O)N(c3ccc(Cl)cc3)C(=O)N2Cc2cccs2)cc1 (stereo unspecified)	110	107
Cc1cc(Br)ccc1NC(=O)CCS(=O)(=O)c1cccc2nonc12	104	104
Cc1ccc(Cn2cc(S(=O)(=O)c3ccc(C)cc3)c(=O)c3cc(F)c(N4CCCC4)cc32)cc1	110	103
CCn1cc(S(=O)(=O)c2cccc(Cl)c2)c(=O)c2cc(F)c(N3CCC(C)CC3)cc21	109	103
CCOc1ccc(NC(=O)CN2C(=O)C(c3ccccc3)=NC23CCCCCC3)cc1	112	109
CCCCOc1cccc(C(=O)N(Cc2ccc(Cl)cc2)C2CCS(=O)(=O)C2)c1 (stereo unspecified)	101	101
CCOC(=O)Cn1c(=O)oc2cc(S(=O)(=O)N3CCN(c4ccccc4F)CC3)ccc21	100	107
Cc1ccc(NC(=O)c2c(C)oc3ccc(O)c(CN4CCCCCC4)c23)c(C)c1	107	103
COc1ccc(Cn2nnc(C(=O)Nc3cc(OC)ccc3OC)c2N)cc1	98	102
O=C(CSc1nc(=O)n(Cc2ccncc2)c2c1CCC2)Nc1cccc(F)c1	102	101
CCOC(=O)Cn1c(=N)n(CCOc2ccc(OC)cc2)c2ccccc21	104	107
CCOc1ccc(CCNC(=O)c2cccc(Nc3nc4ccccc4nc3-n3nc(C)cc3C)c2)cc1OCC	112	113
COc1cc(Cl)c(C)cc1NC(=O)c1ccc2c(Cl)c3c(nc2c1)CCC3	109	110
O=c1[nH]c2ccc(NCc3ccccc3F)cc2[nH]1	104	106
O=C(NCCn1cc(SCc2ccc(C(F)(F)F)cc2)c2ccccc21)c1ccccc1F	106	110
O=C(NCc1ccc2c(c1)OCO2)c1ccc2c(c1)N(Cc1ccccc1)C(=O)c1ccccc1S2=O (stereo unspecified)	100	101
CCOC(=O)CSc1nc2ccc(NC(=O)c3ccccc3)cc2s1	108	113
COc1ccc(-c2cc(C(F)(F)F)n3nc(C(=O)O)c(Cl)c3n2)cc1OC	105	108
CN(C)c1ccc(CNC(=O)c2cnc3sc(N4CCCCCC4)nn3c2=O)cc1	102	97

Of the compounds above, 3 have a COOH group.
SMILES	Polio RdRp inh	Polio RdRp inh intensity
COc1cc(CNCc2c(C(=O)O)c(C)n(Cc3cccc(Cl)c3)c2C)cc(OC)c1OC	103	105
COc1ccccc1-c1cc2nc(C)c(CCC(=O)O)c(C)n2n1	101	107
COc1ccc(-c2cc(C(F)(F)F)n3nc(C(=O)O)c(Cl)c3n2)cc1OC	105	108

(continued)
SMILES	Polio RdRp inh	Polio RdRp inh intensity
Cc1c(C(=O)N(C)C)sc2c1c(=O)n(-c1ccc(Cl)c(Cl)c1)c(=O)n2CC(=O)N1CCCCC1C (stereo unspecified)	103	107
CCOCCc1nn2c(=O)cc(COC(=O)c3ccc4c(c3)OCO4)nc2s1	114	114
COCCNC(=O)c1ccc2c(c1)N(Cc1c(F)cccc1Cl)C(=O)c1ccccc1S2	113	116
Cc1cc2c(cc1S(=O)(=O)Nc1cccc(Cl)c1C)n(C)c(=O)c(=O)n2C	110	116
Fc1cc(Br)ccc1Nc1c2c(nc3nc(-c4cccs4)nn13)CCCC2	115	105
Cc1ccc(-n2nc(C)c3c(C)c(CCC(=O)NCc4ccc(Cl)cc4)c(C)nc32)cc1	107	108
CCCN1CCN(CCCNC(=O)c2ccc(CS(=O)c3ccc(OC)cc3)o2)CC1 (stereo unspecified)	105	104
Cc1ccc2[nH]c(C(=O)Nc3ccccc3)cc2c1	112	115
COC(=O)c1cc2sc(Cl)cc2n1Cc1cc(C)ccc1C	109	114
O=C1c2[nH]nc(-c3ccccc3O)c2C(c2cccc(OCc3ccccc3)c2)N1CCO (stereo unspecified)	112	111
CC1Cc2cc(S(=O)(=O)NCc3ccc(Cl)cc3)ccc2N1C(=O)C1CCC1 (stereo unspecified)	103	105
Cn1nc(-c2ccc(C(=O)Nc3ccc(OC(F)(F)F)cc3)cc2)c2ccccc2c1=O	106	96
Cc1cc(C)cc(NS(=O)(=O)c2cc3[nH]c(=O)c(=O)[nH]c3cc2C)c1	107	112
Cc1cccc(C)c1OCc1cc(=O)n2ccsc2n1	104	105
COC(=O)c1ccc(NC(=O)C(=O)NCCc2sc(-c3cccc(F)c3)nc2C)cc1	109	113
COc1ccc(NC(=O)c2nc(SCc3ccc(F)cc3)ncc2Cl)cc1	108	113
Cn1c(=O)n(C)c2cc(CNCc3ccc(F)cc3)ccc21	104	107
O=C(CSc1nccn1-c1ccc(Cl)cc1)Nc1ccc(Cl)c(Cl)c1	114	112
CCc1nn(CC(=O)NCCCN(CC)CC)c(=O)c2cc3sc(C)cc3n12	113	113
Cc1ccc(-n2ncc3c(N4CCN(Cc5ccccc5)CC4)ncnc32)cc1Cl	105	111
COc1ccc(-c2nc(CSCC(=O)N3CCN(c4cc(Cl)ccc4C)CC3)c(C)o2)cc1	100	100
O=C(Cc1ccccc1)N(Cc1cccnc1)c1nc2c(Cl)cccc2s1	110	113
Cc1cc(C)cc(NC(=O)c2cc(C)nc3c2c(C)nn3-c2ccccc2)c1	110	111
COc1cccc(-n2ccn(CC(=O)Nc3ccccc3F)c(=O)c2=O)c1	106	105
O=C(c1ccc2c(c1)N(Cc1ccccc1F)C(=O)c1ccccc1S2(=O)=O)N1CCN(c2ccccc2F)CC1	108	110

In the list so far, these have two or more sulfur atoms.
SMILES	Polio RdRp inh	Polio RdRp inh intensity
CN(C(=O)CSc1nc2ccc(NC(=O)COc3ccccc3Cl)cc2s1)c1ccccc1	110	106
Cc1cn2c(=O)c(S(=O)(=O)NC(C)c3ccccc3)c(C)nc2s1 (stereo unspecified)	112	115
CC1=C(C(=O)Nc2ccc(Cl)cc2)C(c2cccs2)n2nc(SCc3cccc(C)c3)nc2N1 (stereo unspecified)	114	113
O=C(CSc1nccn1Cc1ccc(F)cc1)Nc1nc2ccccc2s1	106	114
Cc1cccc(NC(=O)CSc2nc3ccc(NC(=O)COc4ccccc4F)cc3s2)c1	111	102
Cc1cccn2c(=O)cc(CSc3nnc(NC(=O)COc4ccc(F)cc4)s3)nc12	111	112
CSc1ccc(/C=C/c2nc3ccccc3n2S(=O)(=O)c2ccc(Br)cc2)cc1	106	107
CCOC(=O)CSc1nc2ccc(NC(=O)c3ccccc3)cc2s1	108	113

Remaining list, next part
SMILES	Polio RdRp inh	Polio RdRp inh intensity
COC(=O)CNC(=O)Nc1cc(C(=O)NCc2ccc(C)cc2)ccc1N1CCCC1	98	101
Cc1ccc(NC(=O)C2CCN(S(=O)(=O)c3c(C)noc3/C=C/c3ccco3)CC2)cc1C	105	110
CCOCCCn1c(SCC(=O)Nc2ccccc2OC)nc2c(oc3ccccc32)c1=O	103	105
O=C(Cn1ncc2c3ccccc3n(Cc3ccccc3)c2c1=O)NCc1ccccc1	114	113
Cc1ccc2nc(-c3ccc(C)o3)c(Nc3ccc4c(c3)OCCO4)n2c1	108	105
Cc1ccc(NC(=O)c2cc(S(=O)(=O)N3CCCCCC3)ccc2F)cc1F	109	99
N#Cc1c[nH]n2c(NC3CCCCC3)c(-c3cccc(Cl)c3)nc12	107	108
Cc1cc(C)n(-c2nc(C)c(C)c(=O)n2CC(=O)Nc2ccc(OC(F)(F)F)cc2)n1	111	108
COc1ccc2oc(=O)cc(CN3CCN(C(=O)c4ccccc4)CC3)c2c1	109	113
COc1cccc(NC(=O)c2c(C(=O)Nc3ccccc3)sc3nc(C)cc(=O)n23)c1	107	109

Screening results from PubChem BioAssay.
